# CtBP-E1A blk: blocks the CtBP interaction with E1A; AlphaScreen GST-E1A/His-CtBP binding, 1536-well; active compounds read low; control for the full effect not named in the record; activity change, % (test concentration not listed); 340,000 tested, 0.49% active; AID 651724; in the data active means activity change below about -65%; inconclusive means about -30% to -65%; inactive means above about -30%; note: % is set by controls: 0 for no effect and ±100 for the full control effect
#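 GST-E1A and His-tagged CtBP (125 nM each as 5X stock) were preincubated with pin-transferred compound for 2 h at 37 °C in the dark, then glutathione donor and nickel acceptor beads were added for 1 h before AlphaScreen reading.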
# D2 PAM: potentiates the human D2 dopamine receptor allosterically; P14416; DiscoveRx D2 beta-arrestin cells, luminescence, 90 min; 100% = 57 uM dopamine signal; potentiation, % (concentration not given with the values); 360,000 tested, 0.23% active; active = potentiation of 50% or more; inconclusive = 30% to 50%; inactive = 30% or less;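 note: compound concentration not given in the record; tested on top of an EC20 dose of dopamine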
# Target sequence (P14416 whole entry, looked up): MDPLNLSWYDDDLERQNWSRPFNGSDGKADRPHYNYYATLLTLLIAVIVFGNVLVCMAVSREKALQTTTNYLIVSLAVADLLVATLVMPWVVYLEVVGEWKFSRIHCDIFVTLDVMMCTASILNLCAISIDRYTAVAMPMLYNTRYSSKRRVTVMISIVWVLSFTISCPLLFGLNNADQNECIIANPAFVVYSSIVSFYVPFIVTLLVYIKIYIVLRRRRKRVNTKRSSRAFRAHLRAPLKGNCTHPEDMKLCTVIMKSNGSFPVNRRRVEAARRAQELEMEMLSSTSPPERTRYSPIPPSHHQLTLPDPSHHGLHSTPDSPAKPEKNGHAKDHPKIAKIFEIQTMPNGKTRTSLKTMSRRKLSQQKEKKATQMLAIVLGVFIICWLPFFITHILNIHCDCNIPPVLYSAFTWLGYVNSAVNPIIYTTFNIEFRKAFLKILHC
#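 D2 cells co-treated with compound plus 50 nM dopamine (EC20) for 90 min at 37 deg C to detect potentiation. Beta-arrestin recruitment was read as enzyme-fragment luminescence after 1 h at ambient temperature. Full response was set by 57 uM dopamine.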
# gsp antag: antagonizes gsp, the McCune-Albright syndrome mutation. 340,000 tested, 0.4% active. AID 624288. gsp-mutant cells, cAMP HTRF, 30 min; control for the full effect not named in the record. Potency, µM (series often up to 76.9 µM), for the others: at the top dose activity change, negative = inhibition, usual class: inhibitors; active = falling curve of any shape with a large fitted effect; inconclusive = falling curve, mostly with a smaller effect; inactive = flat or rising curve; cell line not stated here;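 note: intracellular cAMP measured with PDE inhibitor Ro 20-1724 present during compound exposure; potency is the fitted concentration of half-maximal effect; % is set by controls: 0 for no effect and ±100 for the full control effect; nearly all actives have a fitted effect of over 65% in size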
#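 Cells in G418 medium, seeded 16-24 h, 37C; buffer exchange to DPBS + 1 mM CaCl2, 0.5 mM MgCl2, 0.05% BSA; cpds in DMSO + […] (300 uM stock), 30 min 37C; HTRF cAMP detection.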
# gsp ag: gsp mutant agonism; 340,000 tested, 0.13% active; AID 624287; Potency, µM (top dose mostly 76.9 µM), for inactives: at the top dose activation (cAMP increase), actives largely listed as activators; gsp mutant cells, cAMP HTRF, 30 min; control for the full effect not named in the record; active = well fitted activation curve with a large enough effect; inconclusive = small, poorly fitted or top-dose-only effect, or another doubt; inactive = no such curve, though single readings can be large or run the other way; cell line not stated here;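 note: phosphodiesterase inhibitor Ro 20-1724 added with compounds to block cAMP breakdown; potency is the fitted concentration of half-maximal effect; nearly all actives have a fitted effect of over 60% in size; about a fifth of the inactives were tested at one dose only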
#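 Cells stably selected in G418 were plated at 2000/well, grown 16-24 hr, then given compounds in DMSO with the PDE inhibitor […] (300 uM solution added) for 30 min at 37C; cAMP was read by HTRF.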
# Six1-Eya2 blk: inhibitors of human Six1/Eya2 interaction; Q15475+O00167; AlphaScreen GST-Six1/His-Eya2 binding, biochemical; active compounds read low; control for the full effect not named in the record; activity change, % (concentration not given with the values); 360,000 tested, 0.56% active; AID 651725; in the data active = activity change below about -65%; inconclusive = about -30% to -65%; inactive = above about -30%; note: % is set by controls: 0 for no effect and ±100 for the full control effect
#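 Homogeneous AlphaScreen proximity assay pairing GST-Six1 with His-tagged Eya2 (added as 5X mix: 250 nM and 500 nM) in 50 mM Tris pH 8.0, 300 mM NaCl, 1 mM TCEP. Glutathione donor and nickel acceptor beads; 1 h, 37 °C, dark.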
# D2 ag: activates the human D2 dopamine receptor | DiscoveRx PathHunter D2 beta-arrestin, luminescence, 90 min; 100% = 57 uM dopamine signal | activation, % (no concentration beside the values) | 360,000 tested, 0.084% active | AID 624465; in the data active = activation above about 40%; inconclusive = about 15% to 40%; inactive = below about 15%; note: compound concentration not given in the record; the text of the record calls up to 30% inactive
#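 Agonist mode: compounds alone added to overnight-plated D2 PathHunter cells for 90 min at 37 C, with 57 uM final dopamine (EC100) defining full response. Beta-arrestin recruitment detected by chemiluminescent reagent, read after 1 h at ambient temperature.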
# An asterisk follows results filed as active; ? = inconclusive; / = not tested or not shown; & = joins results of further samples; [ ] = remark or other dose.
SMILES,CtBP-E1A blk,D2 PAM,gsp antag,gsp ag,Six1-Eya2 blk,D2 ag
COC(=O)c1ccc(OS(=O)(=O)c2ccc(NC(C)=O)cc2)cc1,12,-3,-12%,6%,-1,3.8
COc1cccc(CNC(=O)c2ccccc2C(=O)NC(C)(C)C(=O)NCc2cccc(OC)c2)c1,-2,-3,1%,8%,6,-6.5
O=C(NNc1c(F)c(F)cc(F)c1F)c1cc2ccccc2oc1=O,-5,3,8%,10%[15.4 µM],2,4.7
CCCCn1c(=O)c(CCC(=O)OCC(=O)Nc2ccc(F)c(Cl)c2)nc2ccccc21,-14,-12,8%,-3%,-4,-1.7
COc1ccc2c(C(=O)c3ccc(C)cc3)n(Cc3ccc(C(N)=O)cc3)[n+]([O-])c2c1,-3,-9,-3%,/,-11,1.0
CCOc1ccc(N(CC(=O)Nc2ccc(OC)cc2)S(=O)(=O)c2c(C)noc2C)cc1,-18,0,0%,-3%,8,0.4
CC(=O)c1c(C)[nH]c(C(=O)CN2C(=O)NC(C)(C)C2=O)c1C,1,-17,17%,5%,2,-1.8
c1ccc(-c2n[nH]c3ccccc23)cc1,0,-11,-1%,0%,1,-1.8
Cn1c(Cn2c(=O)sc3ccccc32)nnc1SCC(=O)Nc1ccccc1F,1,1,1%,-10%,3,4.0
O=C(NC1CC1)c1cc(Cl)nc2ccccc12,-4,3,9%,4%[15.4 µM],6,2.3
O=S1(=O)CCC(NC(=S)N2CCOCC2)C1 (configuration not stated),2,4,-16%,-2%,4,1.8
Cc1ccc(S(=O)(=O)NCC(=O)N(CC(=O)NC2CCCC2)c2ccc3c(c2)OCCO3)cc1,3,-2,6%,7%,-12,1.9
CCCCCn1c(N)c(-c2nc3ccccc3s2)c2c([N+](=O)[O-])nn(CC)c(=O)c21,3,-6,0%,-25%,0,0.8
CS(=O)(=O)N1CCc2cc(C(=O)Nc3ccc(O)cc3)ccc21,-3,3,-2%,-8%[15.4 µM],10,-5.0
COC(=O)C1CN(C(=O)COc2ccccc2)c2ccccc2O1 (configuration not stated),/,0,2%,13%,1,-4.8
COc1ccc(/C=N/Nc2nn3cnnc3c3ccccc23)cc1,-74*,1,0%,-4%[15.4 µM],?,1.4
O=C(NC1=NCCS1)c1cccs1,-2,-5,3%,0%,-1,-4.5
CC(C)(CO)CN1CCC(n2nccc2NC(=O)C2CCOC2)CC1 (configuration not stated),-3,-15,/,14%,-3,0.3
Cc1cc(-n2c(C)cc(C(=O)CSc3[nH]c(=O)cc(C(F)(F)F)c3C#N)c2C)no1,-10,-2,-12%,-35%[inhibitor],-3,0.0
Cc1cc(C)c(CN2CCN(C(=O)Cn3ccc(N)nc3=O)CC2)c(C)c1,-11,-7,-3%,/,-3,-2.4
CCOCCCNC(=O)CCC(=O)NNc1nc2ccccc2c2nc(-c3ccccc3)nn12,2,-1,11%,0%[15.4 µM],1,-2.0
CC(C)NC(=O)c1ccc2c(=O)n(Cc3ccco3)c(=S)[nH]c2c1,1,7,0%,16%,0,-2.3
NC(=NCCCCCCN=C(N)/N=C(\N)Nc1ccc(Cl)cc1)/N=C(\N)Nc1ccc(Cl)cc1,-16&-15&-5,-29&-27&-18,-13%&-13%&2%,/,-1&11&1,-8.4&-5.0&2.8
CC1=Nc2cc(C(=O)NCc3ccco3)ccc2Sc2ccc(C)cc21,20,-24,30%[activator],14%,-13,-2.5
Cc1cccc(C(C)C)c1NC(=O)COC(=O)CNS(=O)(=O)c1ccccc1,5,-4,-5%,4%,1,4.7

# Full records from above. Screens in order: CtBP-E1A blk, D2 PAM, gsp antag, gsp ag, Six1-Eya2 blk, D2 ag
# `Cn1c(Cn2c(=O)sc3ccccc32)nnc1SCC(=O)Nc1ccccc1F` is listed with 1, 1, 1%, -10%, 3, 4.0
# `Cc1cc(-n2c(C)cc(C(=O)CSc3[nH]c(=O)cc(C(F)(F)F)c3C#N)c2C)no1` is listed with -10, -2, -12%, -35%[inhibitor], -3, 0.0
# `CCOc1ccc(N(CC(=O)Nc2ccc(OC)cc2)S(=O)(=O)c2c(C)noc2C)cc1` is listed with -18, 0, 0%, -3%, 8, 0.4

# The listing picks up, starting 3 compounds before the break.
SMILES,CtBP-E1A blk,D2 PAM,gsp antag,gsp ag,Six1-Eya2 blk,D2 ag
NC(=NCCCCCCN=C(N)/N=C(\N)Nc1ccc(Cl)cc1)/N=C(\N)Nc1ccc(Cl)cc1,-16&-15&-5,-29&-27&-18,-13%&-13%&2%,/,-1&11&1,-8.4&-5.0&2.8
CC1=Nc2cc(C(=O)NCc3ccco3)ccc2Sc2ccc(C)cc21,20,-24,30%[activator],14%,-13,-2.5
Cc1cccc(C(C)C)c1NC(=O)COC(=O)CNS(=O)(=O)c1ccccc1,5,-4,-5%,4%,1,4.7
Cc1ccc(C(=O)COc2ccccc2-c2ccccc2)cc1,97,-9,-16%,-25%,113,-3.7
CSCCC(NS(=O)(=O)c1ccccc1)C(=O)OCc1cc(=O)oc2cc(O)ccc12 (configuration not stated),-10,12,-11%,14%,2,-3.2
O=C(NNS(=O)(=O)c1ccc(Cl)cc1)C1CCN(Cc2ccccc2)CC1,3,3,5%,?,4,-0.8
O=C(c1ccc(S(=O)(=O)Cc2cc(F)ccc2F)c([N+](=O)[O-])c1)N1CCCC1,10,15,-3%,-21%[15.4 µM],-4,6.5
CCOc1cc(C2C3=C(CC(C)(C)CC3=O)N(C)C3=C2C(=O)CC(C)(C)C3)ccc1O,-1,-3,-11%,2%,3,-3.7
CC(=O)c1cnc2nc(SCc3ccc(Cl)cc3)nn2c1C,0,-4,3%,-13%[15.4 µM],-10,-5.6
OCCNc1nc(N2CCOCC2)nc(N2CCOCC2)n1,-12,-3,-11%,14%[15.4 µM],-6,-2.4
Cc1c(C(=O)NC(C)CCc2ccccc2)cccc1[N+](=O)[O-] (configuration not stated),-4,-3,-14%,-17%,-2,-5.6
Oc1cnn(-c2ccccc2)c1,-1,4,-2%,12%,6,1.5
CCOc1cc(/C=N/NC(=O)c2nnn(-c3nonc3N)c2C)ccc1OCc1ccc(F)cc1,8,1,13%,-17%,1,7.8
Cc1c(NC(=O)c2ccc3c(c2)C(=O)N(CC2CCCO2)C3=O)cccc1C(=O)O (configuration not stated),1,-7,-3%,21%,0,-0.8
O=C(Nc1ccccc1)N1CCC(C(=O)N(Cc2ccco2)Cc2cccs2)CC1,2,-2,-15%,-18%,0,0.3
O=C1CCC2(CCCCC2)N1,39,-3,-1%,-8%,14,-1.8
O=C(CN1C(=O)NC2(CCCCC2)C1=O)Nc1ccc(Cl)cc1,/,-1,3%,9%,-5,1.7
CCOc1ccccc1OCC(=O)NCCc1ccc(S(N)(=O)=O)cc1,0,2,5%,?,3,3.0
O=C(Nc1ccccc1C(=O)OCC(=O)N1CCc2ccccc2C1)c1ccco1,-14,-12,-14%,2%,-23,-2.0
N#CCCN(C(=O)Cn1nc(C(=O)O)c2ccccc2c1=O)c1ccccc1,-1,-2,6%,17%[15.4 µM],-2,-1.9
COCCn1c(SCC(=O)c2ccc3c(c2)OCCO3)nnc1C(C)C,13,-12,5%,-30%,11,-4.4
Fc1ccc(-c2nnc3sc(C4COc5ccccc5O4)nn23)cc1 (configuration not stated),-11,-6,-30%,16%,-6,0.7
CCN(CC)CCN1C(=O)C(=O)/C(=C(/O)c2c(C)[nH]c(C(=O)OC)c2C)C1c1ccccc1 (configuration not stated),-5,-4,5%,12%,3,-0.8
Cc1noc(C)c1S(=O)(=O)Nc1cc(C(F)(F)F)ccc1N1CCOCC1,-15,-7,-1%,-38%[inhibitor],18,-3.1
COc1ccc(OC)c2[nH]c(=O)c(CCNS(=O)(=O)c3ccc(C)cc3)cc12,7,-22,-1%,-5%,11,-0.3
COc1ccc(C)cc1S(=O)(=O)NCc1ccccn1,5,-6,/,-95%[inhibitor],0,-1.9
Cc1nn(C)c(Cl)c1CN1CCC(CO)(CCOc2ccccc2)CC1,-10,-15,7%,13%[15.4 µM],-1,-0.7
CCCC(C)NS(=O)(=O)c1ccccc1 (configuration not stated),11,-20,3%,-2%,-1,-0.6
SMILES,CtBP-E1A blk,D2 PAM,gsp antag,gsp ag,Six1-Eya2 blk,D2 ag
COc1nc(NCc2ccc(Cl)cc2)nc(OC)n1,-1,7,0%,14%,8,3.2
Cc1ccc(O)c(C(CC(=O)NCc2cccnc2)c2ccccc2)c1 (configuration not stated),/,-5,14%,7%[15.4 µM],-2,8.8
O=C1C2ON(c3ccccc3)C(c3cccnc3)C2C(=O)N1Cc1ccccc1 (configuration not stated),-3,-9,-26%,-28%,-2,-1.3
CCCCCn1c(=O)[nH]c2cc(C(=O)N3CCN(C(=O)OCC)CC3)ccc2c1=O,6,3,-7%,-1%,3,4.5
O=C(CCN1C(=O)C2C3CCC(C3)C2C1=O)OCC(=O)c1ccc(Br)cc1 (configuration not stated),4,-13,-12%,11%,2,-5.9
CNC(=O)C1Cc2ccccc2CN1S(=O)(=O)c1cccs1 (configuration not stated),2,-21,15%,?,3,0.2
O=C(O)c1ccc(/C=N/NC(=O)c2cc3c(ccc4ccccc43)o2)cc1,-5,9,-20%,-57%[inhibitor],-9,2.3
O=S(=O)(c1cccs1)N1CCCCC1,-1,-8,/,-91%[inhibitor],1,-3.8
CCOC(=O)C1=CCN(S(=O)(=O)c2cccc(Cl)c2)C1c1cccc(C)c1 (configuration not stated),2,-5,/,/,1,-3.7
C/C(CCc1ccco1)=N\NC(=O)CNc1cccc2ccccc12,/,3,-6%,9%,-11,4.2
CC1(C(=O)NS(=O)(=O)c2cccc(Cl)c2)CCN1C(=O)Cc1ccccc1 (configuration not stated),-4,2,/,/,7,-4.6
COc1ccc(/C=N/NC(=O)CCCCCNC(=O)c2ccccc2)cc1,-7,2,-26%,-1%[15.4 µM],1,0.7
Cc1ccc(N2CC(C(=O)OCC(=O)Nc3ccc(F)cc3F)CC2=O)cc1 (configuration not stated),/,-10,-6%,-24%,5,-1.1
C=CCNC(=S)NNC(=O)c1ccc(OCC)cc1,6,10,-17%,-5%,24,-2.9
O=C(COc1cc2oc(=O)c3c(c2cc1Cl)CCC3)Nc1ccc(CN2CCOCC2)cc1,-14,-1,14%,?,9,2.1
Cc1oc(CC(C)C)c(CN2CCCC2)c1C(=O)O,5,8,12%,4%,6,-4.5
C=CCN(CC=C)C(=O)CCc1nnc(CCc2c[nH]c3ccccc23)o1,/,-1,12%,-11%[15.4 µM],11,-1.3
Cc1cc(NC(=O)CSc2c[nH]c3ccccc23)no1,2,-5,-5%,0%,3,-4.1
CSCCC(NS(=O)(=O)/C=C/c1ccccc1)C(=O)NCCc1ccc(S(N)(=O)=O)cc1 (configuration not stated),-2,-5,4%,-7%[15.4 µM],0,-2.9
CN(C)c1cccc(NC(=O)C2(C)CC2(Cl)Cl)c1 (configuration not stated),-1,-7,-9%,?,-1,0.7
Cc1cccc(NC(=O)Cn2nnc(C(=O)NCc3cccs3)c2N)c1C,0,3,7%,6%,-2,1.7
COc1ccc(S(=O)(=O)N(C)CC(=O)O)c2ccccc12,-1,-8,-4%,-46%,2,0.6
Cc1nn(CC(=O)Nc2ccc(Cl)cn2)c(C)c1Br,1,7,6%,13%,3,3.0

# Compound activity as filed in PubChem BioAssay.
